Assay outcomes from PubChem.
D2 ag – Beta-Arrestin HTS for Positive Allosteric Modulators of the Human D2 Dopamine Receptor: Agonists; D(2) dopamine receptor (Homo sapiens), P14416; DiscoveRx PathHunter D2 beta-arrestin, luminescence, 90 min; 100% = 57 uM dopamine signal; activation, % (test concentration not listed); 360,000 tested, 0.084% active; AID 624465, 2012; in the data active = activation above about 40%; inconclusive = about 15% to 40%; inactive = below about 15%; also: compound concentration not given in the record; the text of the record calls up to 30% inactive
Target sequence (P14416 whole entry, looked up): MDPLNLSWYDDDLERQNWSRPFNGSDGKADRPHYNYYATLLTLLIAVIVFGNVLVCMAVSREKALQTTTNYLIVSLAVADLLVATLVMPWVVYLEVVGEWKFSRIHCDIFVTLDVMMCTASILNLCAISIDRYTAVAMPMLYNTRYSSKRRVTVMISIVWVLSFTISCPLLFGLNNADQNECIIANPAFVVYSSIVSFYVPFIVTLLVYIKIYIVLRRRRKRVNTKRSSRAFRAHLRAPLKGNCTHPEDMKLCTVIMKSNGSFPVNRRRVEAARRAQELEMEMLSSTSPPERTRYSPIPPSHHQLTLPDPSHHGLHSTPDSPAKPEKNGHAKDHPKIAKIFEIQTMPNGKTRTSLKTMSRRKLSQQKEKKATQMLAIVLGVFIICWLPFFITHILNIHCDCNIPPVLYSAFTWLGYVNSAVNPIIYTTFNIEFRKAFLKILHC
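DiscoveRx PathHunter D2 beta-arrestin cells (2,100/well) attached overnight, then compound-stimulated 90 min at 37 C in HBSS/10 mM HEPES/0.1% Tween-20 buffer; beta-galactosidase complementation read by luminescence after 1 h at ambient temperature. Dopamine 57 uM final (EC100) as control.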
D2 PAM – Beta-Arrestin HTS for Positive Allosteric Modulators of the Human D2 Dopamine Receptor: Potentiators; D(2) dopamine receptor (Homo sapiens), P14416; potentiation, % (concentration not given with the values); DiscoveRx D2 beta-arrestin cells, luminescence, 90 min; 100% = 57 uM dopamine signal; 360,000 tested, 0.23% active; active = potentiation of 50% or more; inconclusive = 30% to 50%; inactive = 30% or less;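 also: compound concentration not given in the record; tested on top of an EC20 dose of dopamine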
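D2 cells co-treated with compound plus 50 nM dopamine (EC20) for 90 min at 37 deg C to detect potentiation. Beta-arrestin recruitment was read as enzyme-fragment luminescence after 1 h at ambient temperature. Full response was set by 57 uM dopamine.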
TRPML1 ag – qHTS for Agonists of the Human Mucolipin Transient Receptor Potential 1 (TRPML1); TRPML1-expressing cells, Ca2+ dye fluorescence, FDSS; host cell line not named in the record; reference of the full effect not given here; activation, % (test concentration not listed); AID 624414, 2012; Mucolipin-1 (Homo sapiens), Q9GZU1; 410,000 tested, 0.12% active; in the data active = activation above about 50%; inconclusive = about 30% to 50%; inactive = below about 30%; also: 0% is about no effect; the text of the record puts the active cut at 80%
Target sequence (Q9GZU1 whole entry, looked up): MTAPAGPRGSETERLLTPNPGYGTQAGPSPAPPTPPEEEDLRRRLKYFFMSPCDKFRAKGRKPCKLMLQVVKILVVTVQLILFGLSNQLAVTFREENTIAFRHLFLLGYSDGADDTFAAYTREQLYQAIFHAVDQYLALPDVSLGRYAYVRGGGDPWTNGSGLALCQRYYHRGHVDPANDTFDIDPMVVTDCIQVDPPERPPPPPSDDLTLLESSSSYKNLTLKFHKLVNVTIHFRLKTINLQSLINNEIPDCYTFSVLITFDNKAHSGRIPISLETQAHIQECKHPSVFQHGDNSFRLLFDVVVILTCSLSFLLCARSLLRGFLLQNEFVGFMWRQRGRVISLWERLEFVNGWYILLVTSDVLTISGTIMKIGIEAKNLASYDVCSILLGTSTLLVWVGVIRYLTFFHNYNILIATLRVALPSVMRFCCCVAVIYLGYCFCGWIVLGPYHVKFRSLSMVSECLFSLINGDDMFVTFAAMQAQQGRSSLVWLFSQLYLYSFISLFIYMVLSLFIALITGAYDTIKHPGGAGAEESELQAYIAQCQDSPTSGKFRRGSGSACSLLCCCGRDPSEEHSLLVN
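Tet-induced TRPML1-DL cells, 1,500 per well, cultured overnight, were loaded with a no-wash Ca2+ dye for 45–90 min. Calcium fluorescence was recorded on the FDSS for 110 s after compound addition, before the EC80 agonist (4 uM 54-4) was added.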
PINK1 expr mod – A Quantitative High throughput Screen to Identify Chemical Modulators of PINK1 Expression. 410,000 tested, 0.2% active. PINK1 immunofluorescence, high-content cytometry, 24 h. Potency, µM (top dose mostly 76.6 µM), for the others: at the highest dose activation (PINK1 increase), usual class: activators. AID 624263, 2012; active = well fitted activation curve with a large enough effect; inconclusive = small, poorly fitted or top-dose-only effect; inactive = flat fitted curve, though single readings scatter; cell line not stated here;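 also: potency is read from the fitted curve at half-maximal effect; % of control where 0% means no effect; nearly all actives have a fitted effect of over 65% in size; a mitochondrial uncoupler was the plate control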
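Stable cell line treated 24 h with compounds at 5 concentrations (CCCP controls), then fixed and immunostained for PINK1 plus nuclear and cell stains; PINK1 immunofluorescence quantified by laser-scanning microplate cytometry.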
CtBP-E1A blk – qHTS Assay for Inhibitors of the CtBP/E1A Interaction; CtBP / adenovirus E1A interaction (AlphaScreen); AlphaScreen GST-E1A/His-CtBP binding, 1536-well; stronger effect = lower value; control for the full effect not named in the record; activity change, % (test concentration not listed); 340,000 tested, 0.49% active; in the data active means activity change below about -65%; inconclusive means about -30% to -65%; inactive means above about -30%; also: % is scaled to controls: 0 for no effect and ±100 for the full control effect; compound concentration not given in the record
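AlphaScreen with 125 nM GST-E1A and 125 nM His-CtBP (5X stocks) in Tris pH 8.0, 300 mM NaCl, BSA, Tween 20, TCEP. Compounds preincubated 2 h at 37 deg C, then glutathione donor/nickel acceptor beads added for 1 h at 37 deg C in dark.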
Six1-Eya2 inh – qHTS Assay for Inhibitors of the Six1/Eya2 Interaction; activity change, % (no concentration beside the values); Homeobox protein SIX1 (Homo sapiens) + Protein phosphatase EYA2 (Homo sapiens), …; AID 651725, 2012; 360,000 tested, 0.56% active; AlphaScreen GST-Six1/His-Eya2 binding, biochemical; stronger effect = lower value; control for the full effect not named in the record; in the data active = activity change below about -65%; inconclusive = about -30% to -65%; inactive = above about -30%; also: % is scaled to controls: 0 for no effect and ±100 for the full control effect; compound concentration not given in the record
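AlphaScreen luminescence read after one hour at 37 °C in darkness. Pin-transferred compounds met GST-Six1 and His-Eya2 protein (5X stock 250 nM/500 nM) plus glutathione donor and Ni-chelate acceptor beads (5X, 50 ug/mL).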
Active calls of the source: *; u = inconclusive; x = not tested or not shown; & = joins results of further samples; [ ] = dose if it differs, or a comment.

Values run as follows: D2 ag	D2 PAM	TRPML1 ag	PINK1 expr mod	CtBP-E1A blk	Six1-Eya2 inh
> O=C(Nc1nc(NC(=O)c2ccco2)n(-c2ccccc2)n1)c1ccccc1
    0.8	-5	1.1	16%[38.3 µM]	u	u
> CN(c1ccc(C(=O)Nc2ccc3c(c2)n(C)c(=O)n3C)cc1)S(C)(=O)=O
    -0.5	-3	-0.2	-0.5%	9	2
> COc1cccc(CN2CCCC(C(=O)c3ccc4c(c3)OCO4)C2)c1O (stereo unspecified)
    -8.5	-4	-0.5	-0.8%	-2	-7
> O=C(NC1CCN(S(=O)(=O)c2ccc(F)cc2)CC1)c1cccnc1
    -2.4	-4	0.0	-1.4%	6	10
> CCn1c2ccccc2c2nnc(SCc3ccccc3)nc21
    6.2	1	-0.2	3.6%	5	5
> O=C(c1ccc(Cl)c(S(=O)(=O)N2CCCCC2)c1)N1CCCC1
    5.5	-4	0.5	2.4%	7	8
> O=S(=O)(NCCc1ccccc1)c1ccc(-n2cnnn2)cc1
    -4.0	-4	0.7	-1.1%	-1	3
> O=C(O)c1cccc(S(=O)(=O)Nc2cccc(S(=O)(=O)N3CCCC3)c2)c1
    -2.5	-2	-0.2	0.4%	2	7
> O=C(Nc1ccccc1Oc1cccnc1)C1CCCN(C/C=C/c2ccccc2)C1 (stereo unspecified)
    0.0	-35	1.6	1.3%	-11	4
> C/C(=N\NC(=O)CSc1nc2ccccc2c(=O)n1-c1ccccc1C)c1cccs1
    -2.9	5	0.2	7.5%	9	-2
> COc1ccc(C(C)=O)cc1CSc1ccc2c(c1)OCCO2
    -0.6	-5	1.6	1.6%	-22	-15
> CN(CCCNC(=O)c1cc2c(=O)[nH]c3ccccc3c2n1C)Cc1ccccc1
    -3.2	-6	0.4	0.4%	x	-3
> CCOC(=O)N1CCN(S(=O)(=O)N(C)C)CC1
    -2.2	-5	0.4	-0.8%	-1	-3
> CCOc1ccc(C(C)=O)cc1CSc1nnnn1-c1ccc(O)cc1
    3.3	-1	2.2	-1.9%	7	3
> O=C(Nc1ccc2[nH]c(=O)[nH]c2c1)c1c(F)c(F)c(F)c(F)c1F
    7.1	1	1.3	-0.7%	4	-9
> CSCCC(NC(=O)COc1ccccc1)C(=O)N1CCN(C(C)=O)CC1 (stereo unspecified)
    3.6	-13	-0.1	4.2%	7	1
> Cc1ccc(C)c(OCC(=O)Nc2nc3ccc([N+](=O)[O-])cc3s2)c1
    -5.4	-19	-0.6	12%	6	7
> CCOC(=O)/C=c1\s/c(=C\c2ccc(C(=O)OC)cc2)c(=O)n1CC(=O)Nc1ccccc1
    -0.6	3	-0.9	2.0%	6	2
> C=CCNC(=O)c1cc2cccc(OC)c2oc1=O
    -2.8	-1	0.2	0.4%	8	10
> CN(C)C(CNC(=S)Nc1ccc(F)cc1)c1cccnc1 (stereo unspecified)
    -5.0	-1	0.3	-0.4%	6	7
> Cc1ccc(NC(=O)C2=C(c3ccccc3)S(=O)(=O)CCS2(=O)=O)cc1
    -6.6	-1	2.2	-1.5%	-8	u
> COc1cc(C(=O)N2CCC2(C)C(=O)O)cc(OC)c1OC (stereo unspecified)
    -5.9	-6	0.3	-0.4%	5	7
> CC(=O)NCCCNc1ccc([N+](=O)[O-])cc1
    -2.1	-22	-0.2	0.2%	1	3
> N#Cc1ccccc1Cn1cc(/C=N/Nc2ccc([N+](=O)[O-])cn2)c2ccccc21
    6.6	-5	4.6	2.7%	x	5
> CCN1CCN(CCC(=O)Nc2cccc(OC)c2)CC1
    -0.3	-11	0.1	-0.2%	-10	-1
> OCCC1CN(Cc2cccc(O)c2)CCN1CCc1ccccc1 (stereo unspecified)
    1.8	-17	0.0	-2.9%	x	5
> c1ccc2c(c1)ccc1nnc(SCc3ccc4c(c3)OCCO4)n12
    -2.7	-5	-0.2	5.0%	-8	-13
> Fc1ccc(/C=N/NC(=S)Nc2ccc(Cl)cc2)cc1F
    -5.7	-30	0.3	8.4%	0	0
> COc1ccc(NC(=O)C(Cc2ccccc2)n2cccc2)c(OC)c1 (stereo unspecified)
    -7.8	-10	1.8&0.4	0.7%&0.7%	x	-22
> CC(=O)NC(CCS(C)(=O)=O)C(=O)Nc1cccc(Cl)c1Cl (stereo unspecified)
    -1.9	-8	0.2	3.6%	5	-9

Two entries picked at random from the list so far, as already listed:
Values run as follows: D2 ag	D2 PAM	TRPML1 ag	PINK1 expr mod	CtBP-E1A blk	Six1-Eya2 inh
> Cc1ccc(C)c(OCC(=O)Nc2nc3ccc([N+](=O)[O-])cc3s2)c1
    -5.4	-19	-0.6	12%	6	7
> N#Cc1ccccc1Cn1cc(/C=N/Nc2ccc([N+](=O)[O-])cn2)c2ccccc21
    6.6	-5	4.6	2.7%	x	5

Next section.
Values run as follows: D2 ag	D2 PAM	TRPML1 ag	PINK1 expr mod	CtBP-E1A blk	Six1-Eya2 inh
> O=C(N/N=C/c1cccc(OC(=O)c2cccc(Br)c2)c1)c1ccncc1
    2.4	10	1.2	1.5%	-7	-23
> CON(C)c1nc(OCCNC(=O)COc2ccc(Cl)cc2C)nc(N(C)C)n1
    -3.4	-19	0.9	-0.8%	0	-2
> CC(C)(C)n1nnnc1CN1C2CCC1CC(NC(=O)Nc1ccccc1)C2 (stereo unspecified)
    -1.6	-7	0.5	0.9%	3	7
> CC(C)(C)S(=O)N1Cc2cc(=O)n(Cc3ccccc3)c(CCO)c2[C@H]1CCO (stereo partly specified)
    -0.6	x	-0.9	-0.2%	21	-17
> COC(=O)[C@@H]1[C@@H](C)OC(=O)N[C@H]1c1ccccc1
    -0.7	-4	-0.8	0.0%	3	3
> CC(C)(C)NC(=O)Nc1nnc(SCC(=O)NC2CCCCC2)s1
    1.4	-16	0.7	-5.0%	9	3
> O=C(O)Cn1c(-c2ccccc2)nc2ccccc21
    -2.3	-4	-0.9	1.1%	1	10
> Cc1cc(C)c(C(=O)Nc2ccc(S(=O)(=O)Nc3ccccn3)cc2)c(C)c1
    5.3	0	0.5	-0.8%	2	-11
> C/C(N)=C(/C#N)C(=O)COC(=O)C1CSC2(c3ccc(F)cc3)CCC(=O)N12 (stereo unspecified)
    0.0	-3	-0.3	0.8%	3	15
> Cc1cccc(-c2nnc(SCC#N)n2-c2ccccc2)c1
    -3.9	-8	0.0	-0.9%	4	-2
> O=c1[nH]c(CN2CCN(c3ccc(F)cc3)CC2)nc2ccccc12
    0.0	-14	-0.4	-1.1%	6	0
> O=C(CS(=O)(=O)c1cn(Cc2ccc(F)cc2)c2ccccc12)N1CCOCC1
    1.7	0	-0.3	1.4%	-2	2
> O=C(O)c1c(NC(=O)c2cccc3ccccc23)sc2c1CCC2
    -1.8	-4	0.8	1.4%	6	3
> N#Cc1cncc(C#Cc2ccccc2)c1
    -1.1	2	1.4	5.8%	14	12
> Cn1c(=O)n(C)c2cc(NC(=O)c3cc4ccccc4o3)ccc21
    1.8	4	-0.2	x	-7	-10
> CCc1nc2c(OCc3cccc(Cl)c3)cccn2c1N(C)C(=O)C1CC1
    1.8	-1	0.5	3.7%	-3	-21
> C/C(=N\NC(=O)C1CC1(C)c1ccccc1)c1ccco1 (stereo unspecified)
    -0.2	-7	-0.8	2.1%	-6	2
> Nn1c(SCC(=O)NCCC2=CCCCC2)nnc1C1CCCCC1
    -0.8	12	0.7	-1.8%	-5	4
> O=C(O)Cn1nnnc1SCC(=O)Nc1ccc(OC(F)(F)F)cc1
    -0.8	u	-0.4	1.1%	5	6
> Cc1noc(C)c1C(=O)Nc1sc2c(c1C(N)=O)CCC2
    1.6	-6	0.7	u	2	-1
> CC1CCc2ccccc2N1CC(=O)Nc1cccc(S(=O)(=O)N2CCCC2)c1 (stereo unspecified)
    0.5	-2	2.3	1.1%	-7	-17
> CCOc1ncccc1C(=O)OCC(=O)NC1CCCCC1
    10	4	3.4	3.0%	0	4
> CC1=C(C)SC(=C(C#N)c2nnc(N3CCOCC3)n2-c2ccccc2)S1
    -0.6	-17	-0.4	-3.9%[38.3 µM]	14	-1
> Cc1ccc(/C=N/NC(=O)c2nnn(-c3nonc3N)c2C(C)C)s1
    0.8	-6	3.7	6.3%	x	0
> Cc1ccc(NCc2ccc(Cl)nc2)c(NCc2ccc(Cl)nc2)c1
    1.5	-5	0.0	0.7%	-1	-7
> CCOC(=O)NC(Nc1nnc(C)s1)(C(=O)OCC)C(F)(F)F (stereo unspecified)
    -1.0	12	-0.5	0.5%	2	-2
> COc1ccc2[nH]c(=O)c(C(=O)O)cc2c1
    -5.3	-9	-1.3	1.9%	-1	6
> CC(Oc1ccc(C#N)cc1)C(=O)NC1CCCC1 (stereo unspecified)
    -1.6	-1	-0.9	0.0%	x	-6
> CCn1c(SCC(=O)NC2CC2)nnc1-c1cccs1
    0.7	-2	0.1	0.0%	8	4
> Cc1ccsc1C(=O)N[C@@H](C)c1nnc2ccccn12
    -4.7	0	0.8	-1.6%	x	3
> CC(/C=N/NC(=O)c1cc(-c2cccs2)[nH]n1)=C\c1ccccc1
    1.3	-3	0.9	11%	6	9
> O=C(CN(Cc1ccccc1)S(=O)(=O)c1ccc(F)cc1)NCc1ccccn1
    -3.2	-2	0.2	-1.4%	-15	11
> COc1cc(C(=O)OCC(=O)Nc2cc(-c3cc(C)c(C)cc3C)nn2-c2ccccc2)cc(OC)c1OC
    2.0	0	-0.3	2.9%	6	0
> CC(C)=CC(=O)Nc1ccc2c(c1)OCO2
    -0.7	-15	0.6	u	-23	3
> O=C(O)C1CCc2nc(NCc3ccccc3)nc(NCc3ccccc3)c2C1 (stereo unspecified)
    -1.8	-8	-0.4	2.9%	6	0
> O=C(Nc1ccc(F)c(Cl)c1)C1CCN(c2ncnc3c2nc2n3CCCCC2)CC1
    0.5	-10	1.1	2.6%	-18	-14
> Cc1nn(C)c(C)c1NC(=O)COc1ccc(Cl)cc1Br
    -1.4	2	-0.4	-0.8%	-2	2
> O=[N+]([O-])c1ccc(Nc2ccccc2)c2nonc12
    -12	-29	3.1	21%	x	-13
> CCN(CC)S(=O)(=O)c1cccc(C(=O)Nc2sc3c(c2C(N)=O)CCCC3)c1
    -1.6	-4	1.2	u	-17	-24
> O=C(N/N=C/c1c[nH]c2ccccc12)C1CC(=O)N(c2ccccc2)C1 (stereo unspecified)
    -3.9	-4	-0.3	5.0%	-8	-11
> CCOc1ccc(CCNC(=O)c2cccc(C#N)c2)cc1OCC
    0.5	-6	-0.3	0.8%	4	-13

No enrichment for hits; overall some 1.3% were active at least once.
